Calb FLC: C. albicans growth inhibition with fluconazole, primary screen, CaCi-2 strain, Alamar Blue fluorescence | actives 0.57% (n = 300,000) | growth inhibition, % (test concentration not listed) | C. albicans CaCi-2 (fluconazole-resistant clinical isolate) + fluconazole, 48 h;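 active = most replicates above 75%; inconclusive = exactly half above 75%; inactive = most below 75%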;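 also: all wells also contain fluconazole at 8 µg/ml as a sub-toxic cotreatment; 0% = median of DMSO wells and 100% = median of geldanamycin control wells; wells of about 8 µL received 7.5 nL stock; the first replicate is given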
Bfl-1 A1 inh: caspase 3/7 activation in MEF A1-2A-BIM cells, primary screen, A1 inhibitor project, cell-based, luminescence, HTS; Caspase-Glo 3/7 luminescence, 3 h; percent of clofoctol response, vehicle zero; caspase activation, % (no concentration beside the values); actives 0.066% (n = 330,000); AID 2462, 2010;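 active = over half of replicate activation scores above 10%, or exactly half above 10 with the replicate mean above 10; inconclusive = replicate mean below 10 yet half the replicates above 10; inactive = over half of replicates below 10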;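 also: wells of about 30 µL received 50 nL stock; many hits fall short of the cut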
Vif TR-FRET: inhibitors of Vif binding to APOBEC3G peptide, primary screen, biochemical, TR-FRET, GST-Vif 1-94, biotin-A3G peptide, dose response retest (AID 1117319). TR-FRET GST-Vif / biotin-A3G peptide binding; higher % means a stronger effect; test concentration not given here; strong numbers were not always called active. actives 0.57% (n = 260,000). one-dose inhibition, %; IC50 in µM for titrated hits;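 active = above the screen mean plus three standard deviations and confirmed in dose response; inconclusive = results disagree or hit not tested in dose response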;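 also: Vif residues 1-94 fused to GST binding biotinylated APOBEC3G peptide 110-148; 0% = full assay without inhibitor and 100% = GST in place of GST-Vif; retest series ran down from 100 µM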
AF4-AF9 inh: inhibitors of AF4 peptide binding to AF9, primary screen, biochemical, AlphaScreen, biotin-AF4 peptide, FLAG-AF9, single point | AID 651704, 2012 | Protein AF-9 (Homo sapiens), P42568 | actives 0.47% (n = 350,000) | inhibition, % at 10 µM;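 active = every replicate reaching a set inhibition limit, whatever the replicate mean, cut at about 25% in these data; inconclusive = mean inhibition reaches that limit but some replicates miss it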;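 also: 0% = plate neutral control median and 100% = total signal loss; the record names both 10 and 1 µM as test concentration; the first replicate is given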
Target sequence (P42568 whole entry, looked up): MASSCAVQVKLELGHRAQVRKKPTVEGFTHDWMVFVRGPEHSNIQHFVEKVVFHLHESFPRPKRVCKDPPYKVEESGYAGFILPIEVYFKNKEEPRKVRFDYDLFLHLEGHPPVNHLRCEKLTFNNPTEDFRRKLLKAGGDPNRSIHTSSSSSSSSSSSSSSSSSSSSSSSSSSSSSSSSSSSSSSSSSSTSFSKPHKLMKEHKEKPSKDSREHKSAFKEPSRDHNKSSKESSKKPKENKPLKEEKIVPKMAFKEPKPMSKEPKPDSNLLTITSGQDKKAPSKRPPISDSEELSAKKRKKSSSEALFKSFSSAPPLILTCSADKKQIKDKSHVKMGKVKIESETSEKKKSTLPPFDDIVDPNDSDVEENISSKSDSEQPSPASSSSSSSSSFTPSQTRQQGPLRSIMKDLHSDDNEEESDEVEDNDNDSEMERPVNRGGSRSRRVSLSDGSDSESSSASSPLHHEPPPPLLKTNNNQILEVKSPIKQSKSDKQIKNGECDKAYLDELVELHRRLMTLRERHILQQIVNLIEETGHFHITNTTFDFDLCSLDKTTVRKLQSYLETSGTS
RanGTP-Impb inh: inhibitors of RanGTP-importin-beta interaction, primary screen, biochemical, FRET, CFP-Ran, YFP-importin-beta, homogeneous; inhibition, % (no concentration beside the values); cell-free CFP-Ran/YFP-importin-beta FRET ratio; actives 1.1% (n = 300,000); Ran GTPase (GTP-bound) - importin-beta complex;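 active = most replicates above 15%; inconclusive = exactly half above 15%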;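 also: 0% = DMSO wells and 100% = Ran loaded with GDP instead of GTP; wells of about 40 µL received 100 nL stock; the first replicate is given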
Beta cell apopt: inhibitors of cytokine-induced beta cell apoptosis, primary screen, luminescence. INS-1E cytokine-induced death, ATP luminescence, 48 h; percent of positive-control rescue, neutral wells zero. protection from apoptosis, % (concentration not given with the values). actives 0.8% (n = 300,000). AID 435005, 2010;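 active = all replicates at 75% or more, or half of them and the mean; inconclusive = half reach 75% but not the mean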;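 also: 0% = cytokine-treated negative control wells and 100% = positive control rescue; higher means more ATP so stronger rescue from cytokine killing; wells of about 40 µL received 100 nL stock; the first replicate is given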
Ecoli rRNA inh: reduced GFP signal of wild-type E. coli, primary screen, bacterial rRNA inhibitor project, GFP/RFP fluorescence, OD600, single point. actives 1.6% (n = 350,000). E. coli WT GFP vs humanized-ribosome RFP mutants, 24 h; hits give low values; DMSO median 0, no signal -100. GFP signal change (wild-type ribosome), % (concentration not given with the values);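 active = significant combined selectivity score with lowered wild-type GFP, culture density cut under 30%, mutant RFP and density less affected; inactive = any of these conditions unmet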; also: one replicate is shown; some compounds called inactive have numbers as strong as hits
T cruzi repl: inhibitors of intracellular T. cruzi growth, primary screen, luminescence, NIH3T3 host cells | T. cruzi beta-gal in NIH3T3, 90 h | actives 1.4% (n = 300,000) | inhibition, % (no concentration beside the values);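 active = mean inhibition across valid replicates above about 55%, limit read from the data; inconclusive = mean below that limit but half or more replicates reach it; inactive = mean below it, under half of replicates reach it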;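 also: signal also drops with host cell toxicity which is not excluded here; 0% = plate median of DMSO wells and 100% = zero luminescence signal; higher percent means less beta-gal luminescence so fewer parasites; stock transfer was 50 nL into about 50 µL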
Ecoli rRNA inh OD600: further read-out of Ecoli rRNA inh, marked with its call; OD600 change, %; measured here: OD600 growth;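 optical density of the mix in the first replicate; 0 = DMSO median and -100 = no signal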
Ecoli rRNA inh RFP: recorded beside Ecoli rRNA inh, whose call it bears; RFP signal change, %; measured here: RFP humanized mutant strains;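 first replicate; 0 = DMSO median and -100 = no signal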
Numbers without * were called inactive; ? = inconclusive; . = no result given; & = joins results of further samples. The list is partial. The share of hits here may be higher or lower than overall.

SMILES	Calb FLC	Bfl-1 A1 inh	Vif TR-FRET	AF4-AF9 inh	RanGTP-Impb inh	Beta cell apopt	Ecoli rRNA inh	Ecoli rRNA inh OD600	Ecoli rRNA inh RFP	T cruzi repl
O=C1NC(=O)C(CCc2ccncc2)(Cc2ccc([N+](=O)[O-])cc2)C(=O)N1	-3	0.1	30%	3.7	-2.4	0	13	21	-7.0	-6
Cc1ccc(-n2c(O)c(C=NCc3ccccn3)c(=O)[nH]c2=S)cc1	1	-0.3	6%	4.1	1.9	-4	-5	8	-2.3	3
OC(CN1CCCCC1)c1c[nH]c2ccccc12 (stereo not drawn)	6	1.5	2%	7.9	2.1	-3	4	13	0.3	5
Cc1ccc(NC(=O)[C@@H](NC(=O)N2C[C@H]3C[C@@H](C2)c2cccc(=O)n2C3)C(C)C)cc1	2	-0.4	.	-2.2	0.4	-4	.	.	.	1
O=S(=O)(c1ccccc1)N1CC1c1ccccc1 (stereo not drawn)	-3	-0.1	-4%	.	-3.3	1	.	.	.	1
O=Cc1cn(Cc2ccccc2[N+](=O)[O-])c2ccccc12	-16	0.4	.	-1.0	1.3	-3	2	-4	-2.3	-24
Cc1cc(S(=O)(=O)NCc2ccccc2)ccc1OCC(=O)N1CCN(C)CC1	9	0.1	1%	2.9	3.6	-5	0	-2	-2.2	19
C[C@]12CCC3C(CC[C@H]4C[C@@H](O)CC[C@]34C)C1C[C@@H](O)C2=O (stereo partly drawn)	.	1.3	.	1.6	.	1	-23*	-29*	-4.0*	.
Cc1cc2c(C(F)(F)F)cc(=O)oc2c2c1NCCC2	-26	-0.7	1%	.	-191	-9	.	.	.	12
COc1cc(/C=C(/C)[N+](=O)[O-])ccc1OCc1ccccc1Cl	.	?	22%	.	.	92*	.	.	.	61*
CCn1cc(C=C2C(=O)NC(=O)NC2=O)c2ccccc21	2	-0.4	-8%	-1.0	3.0	-5	10	4	33	-11
C=CCn1c(O)c(C(CC)=Nc2ccc(NC(C)=O)cc2)c(=O)[nH]c1=O	0	-0.6	.	-3.5	0.1	-3	-6	2	-2.2	1
C=CCn1c(O)c(C(CC)=NC2CC2)c(=O)[nH]c1=O	-20	0.2	29%	.	-0.4	-8	.	.	.	-11
COc1ccc(C(=O)N2CCOCC2)cc1S(=O)(=O)N1CCC(C)CC1	-11	1.0	3%	.	-3.2	-1	.	.	.	-4
COc1ccc(CCN(C)Cc2c(F)cccc2F)cc1OC	-1	1.4	?	.	4.2	2	.	.	.	43
Clc1ccc(NC2=NCCCS2)cc1Cl	-18	-1.5	0%	-0.5	2.1	-6	-6	-5	-2.2	55*
O=C(Cc1ccccc1)N1CCN(Cc2cccc(Cl)c2)CC1	-3	0.5	.	-0.7	4.6	2	0	-3	-0.6	-6
Cc1cc(S(=O)(=O)NCC(C)C)ccc1OCC(=O)N1CCN(Cc2ccccc2)CC1	10	0.4	7%	.	5.5	5	.	.	.	11
O=C(CCC(=O)N1CC2C[C@@H](C1)Cn1c2cccc1=O)NCCc1ccccc1F	2	0.0	.	-2.0	0.7	-10	10	8	1.6	-9
CC(O)CNc1ccc([N+](=O)[O-])c2cccnc12 (stereo not drawn)	-1	0.2	12%	.	-0.7	-3	.	.	.	-11
COC(=O)C1=C(c2ccc3ccccc3c2)C[C@@H]2CC[C@H]1N2C(=O)NCc1ccc(F)cc1	.	-1.3	.	1.9	.	-5	-12	-20	1.6	.
CNC(=O)Oc1cccc2ccccc12	3	0.7	.	.	1.9	0	-3	-12	-0.6	-2
O=c1[nH]c(=O)n(Cc2ccco2)c(O)c1/C=N/N1CCCCC1	12	0.5	23%	-2.5	0.0	2	16	12	-5.1	20
CC(=O)N1N=C(c2c(O)n(C)c(=O)n(C)c2=O)CC1c1ccccc1 (stereo not drawn)	-8	-0.5	1%	0.6	4.8	10	-27	-35	-5.9	-23
CCOc1ccc(CN2CCCC(C(=O)c3ccccc3OC)C2)cc1 (stereo not drawn)	-1	0.5	.	0.6	3.4	1	2	1	-0.2	42
O=c1cccc2n1C[C@H]1C[C@@H]2CN2CCCC[C@@H]12	0	-0.4	-6%	-5.5	-0.1	-5	16	17	-2.8	7
COP(=O)(OC)C(NC(=O)c1ccc(C)cc1)C(Cl)(Cl)Cl (stereo not drawn)	4	-0.9	2%	0.7	3.3	-2	7	10	2.1	-1
CN(C)C1=NP(N(C)C)(N(C)C)=NC(c2ccccc2)=N1	15	0.7	-1%	.	1.3	-1	.	.	.	-24
CCN1C(=O)C(=Cc2ccc(C)s2)C(=O)N(CC)C1=S	-1	-0.5	?	1.2	?	-4	15	12	5.7	-20
COC(=O)C1=C(c2ccc(S(C)(=O)=O)cc2)C[C@@H]2CC[C@H]1N2C(=O)NC(C)C	6	0.4	.	-3.7	3.6	-2	-1	7	-2.5	-11
CCCCn1c(O)c(/C(CC)=N/N2CCCCC2c2cccnc2)c(=O)[nH]c1=S (stereo not drawn)	16	0.8	.	.	2.0	7	.	.	.	42
CCC1CCCCN1P(=O)(c1ccc(C)o1)C(C)(C)C (stereo not drawn)	13	0.6	75%	-2.5	-4.5	-3	-1	-4	6.9	4
CCOc1ccc(-n2c(O)c(C=NCCN3CCNCC3)c(=O)[nH]c2=O)cc1	-21	0.3	27%	.	1.4	-3	.	.	.	-17
Cn1cc(NC(=O)CCl)cn1	18	-0.1	6%	-0.4	2.6	2	14	20	-13	-20
CCN(C(=O)Oc1ccccc1)c1ccc(C(O)(C(=O)OC)C(F)(F)F)cc1 (stereo not drawn)	-2	-0.5	.	-14	-2.5	-6	-2	-9	-8.7	-3
COc1ccc(-n2c(CNCCc3ccc(C)cc3)nc3ccccc3c2=O)cc1	-1	0.2	.	1.6	2.3	9	4	4	2.6	34
CCN(CC)C(=O)c1ccc(NC(=O)c2c(C)noc2C)cc1	.	0.0	.	1.4	.	2	1	4	-0.2	.
CCOC(=O)C1(CCc2ccccc2)CCN(Cc2cccc3c2OCO3)CC1	-35	0.1	9%	9.1	7.1	16	-42	-68	-7.7	42
Cc1cc([N+](=O)[O-])c2ccccc2[n+]1[O-]	?	0.3	31%	.	3.5	115*	.	.	.	79*
OC12ONC(c3ccccn3)C1N1CCC2CC1 (stereo not drawn)	-22	-0.4	-2%	0.1	1.8	-3	11	11	6.6	9
O=P(O)(O)C12CC3CC(CC(C3)C1)C2	-4	0.5	19%	.	-2.2	.	.	.	.	5
CC(=O)c1ccc2c(c1)C1C(Cl)C(Sc3ccccc3[N+](=O)[O-])CC1C(c1ccccc1[N+](=O)[O-])N2 (stereo not drawn)	31	-0.2	?	.	1.7	19	.	.	.	36
CCN1CCN(C(=O)COc2ccc(S(=O)(=O)Nc3ccc(Cl)cc3)cc2)CC1	-7	-0.4	.	0.9	1.3	-8	3	-10	-0.5	33
COc1ccc(CCn2c(O)c(/C=N/N3CCOCC3)c(=O)[nH]c2=O)cc1OC	0	-1.2	-5%	.	-3.8	.	21	15	4.5	-11
O=C1NC(=O)C(=Cc2ccc(Oc3ccc([N+](=O)[O-])cc3)cc2)C(=O)N1	5	0.8	18%	.	-1.2	-5	.	.	.	1
O=C(Cc1c(Cl)cccc1Cl)N1CCN(Cc2ccccc2)CC1	1	1.6	3%	2.1	0.0	-5	0	-10	-2.5	-7
CCCn1c(C(=O)c2ccccc2)nc2ccccc21	-15	-2.0	1%	-1.0	-4.0	2	-24	-27	-4.1	3
Cc1ccc(CNC2=NCCS2)cc1	-14	-1.5	23%	.	?	-3	5	-7	-3.5	2
COc1ccc(-n2c(-c3ccccc3)nc3ccccc3c2=O)cc1	-6	1.2	-6%	2.9	0.9	-6	6	3	3.8	-3
CCC1(c2ccccc2)C(=O)N(COC)C(=O)N(COC)C1=O	.	.	-2%	-2.1	-1.5	.	3	7	-1.6	-22
COc1cccc(NC(=O)[C@@H](NC(=O)N2C[C@H]3C[C@@H](C2)c2cccc(=O)n2C3)C(C)C)c1	1	0.5	.	-3.6	-2.5	-1	9	6	3.0	1
Clc1cccc(N2CCNCC2)c1	.	-0.1	.	2.1	-1.4	-5	.	.	.	3
CCC(COC(=O)c1cc(OC)c(OC)c(OC)c1)(c1ccccc1)N(C)C (stereo not drawn)	-11	-0.8&0.2	-3%	7.4&7.7	-1.1&-2.3	-2	-7&-5	-5&-2	3.1&1.0	-4&16
CCSc1nnc([C@@H](N)Cc2ccccc2)o1	1	0.3	2%	.	8.0	-1	.	.	.	3
CC/C(=N\NC(=O)c1ccccc1O)c1c(O)n(C2CCCCC2)c(=O)[nH]c1=O	6	0.5	.	3.3	0.9	-7	-8	-14	8.5	-4
O=C1NC(=O)N(c2ccc(Cl)cc2)C(=O)/C1=C/c1coc2ccc(O)cc2c1=O	0	0.3	.	6.1	4.7	0	-44	-74	-2.5	4
Cc1cc(CN(C)C)c(OC(=O)N(C)C)cc1C	2	1.0	3%	.	0.6	.	.	.	.	-3
COc1ccc(-c2nn(CCC#N)cc2C(=O)Nc2ccccc2Cl)cc1	2	0.4	.	4.3	5.0	-7	2	11	1.2	13
Cc1nnc2ccc(N3CCN(C)CC3)nn12	-9	.	15%	.	-4.5	.	.	.	.	-1
Clc1ccc2[nH]c3c(c2c1)CCNC3	11	0.5	.	9.1	-1.4	0	14	8	0.5	15
The list goes on.
SMILES	Calb FLC	Bfl-1 A1 inh	Vif TR-FRET	AF4-AF9 inh	RanGTP-Impb inh	Beta cell apopt	Ecoli rRNA inh	Ecoli rRNA inh OD600	Ecoli rRNA inh RFP	T cruzi repl
CCN(CC)C(=O)COc1cc(C)cc2oc(=O)c3c(c12)CCCC3	-1	1.3	2%	-0.1	-5.0	.	-28	-32	-13	16
COc1ccc(C(=O)OC2CC[C@@]3(C)C4CCC5[C@]6(O)CC(O)[C@@]7(O)C(CN8CC(C)CCC8[C@@]7(C)O)[C@]6(O)C[C@@]53O[C@]24O)cc1OC (stereo partly drawn)	-5	0.1	.	0.9	-2.8	.	5	6	0.5	?
O=C(Cc1cccs1)N1CCC2(CC1)OCCO2	-5	1.3	3%	.	0.6	-6	.	.	.	-18
COc1cccc(C(C#N)N2CCCCC2)c1O (stereo not drawn)	-2	0.1	79µM*	.	-1.5	2	.	.	.	-9
Cc1cc(NC(=O)COC(=O)c2c(C)nn(Cc3ccccc3Cl)c2Cl)no1	-8	0.1	4%	.	4.4	-4	.	.	.	9
O=C(NC1CN2CCC1CC2)c1ccc(-c2ccc([N+](=O)[O-])cc2)o1 (stereo not drawn)	3	0.0	.	.	-1.8	-4	.	.	.	24
